High-throughput results: PubChem BioAssay, Broad Institute
Tg IFNy HTS: T. gondii growth inhibition with IFN-gamma, primary screen, cell-based; Toxoplasma gondii growth in IFN-gamma-treated host cells; stronger effect = lower value; reference of the scale not given here; activity change, negative = inhibition, %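 (about 20 µM by stock and volumes)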; actives 3.8% (n = 69,000);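 active means below -70%; inconclusive means fit judged invalid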;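 further: host cells are HeLa cells infected with Toxoplasma gondii; parasite growth read as luciferase light; one replicate is shown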
* marks the source's active call; other numbers are inactive results; i = inactive; ? = inconclusive; & = joins results of further samples. This is a subset. The share of hits here may be higher or lower than overall.

The first 2 compounds as a preview:
smiles,Tg IFNy HTS
COCC(=O)N1CCC2(CC1)CN(S(C)(=O)=O)[C@H](CO)c1[nH]c3cc(OC)ccc3c12,141
Cc1ccc(CN2CCC3(CC2)Cc2ccccc2CNC3=O)o1,8

The listing (from the top)
smiles,Tg IFNy HTS
COCC(=O)N1CCC2(CC1)CN(S(C)(=O)=O)[C@H](CO)c1[nH]c3cc(OC)ccc3c12,141
Cc1ccc(CN2CCC3(CC2)Cc2ccccc2CNC3=O)o1,8
CC(=O)N[C@@H](Cc1ccccc1)C(=O)N1C[C@@H]2[C@H](C1)c1ccccc1[C@@H]2NC(C)=O,-45
CN(C)c1ccc(NC(=O)Cn2c(=O)cc(-c3nc(C4CC4)no3)c3ccccc32)cc1,30
CN(C)C(=O)C1OC2(CCN(Cc3ccco3)CC2)c2ccccc21 (stereo unspecified),3
COc1ccc(S(=O)(=O)CCNS(=O)(=O)N2CCCC(C)C2)cc1 (stereo unspecified),3
CCC(=O)Nc1nnc(Cc2c[nH]c3ccccc23)s1,182
CCOCCCN(C)C1CCN(S(=O)(=O)c2ccc3[nH]c(=O)ccc3c2)CC1,178
COCCN1C(=O)CCc2cc(NC(=O)Cc3ccccc3OC)ccc21,59
COc1cccc(-c2nc3c(s2)CN(S(=O)(=O)c2cc(C)c(C)cc2C)CC3)c1,-51
OC1(C(F)(F)F)CC(/C=C/c2ccc3c(c2)OCO3)=NN1 (stereo unspecified),-86*
Cc1nc2c(C)cccc2cc1C(=O)N1CCC2(CCN(C)CC2)C1,-6
Cc1cc(C)n(CCCC(=O)NCC2(c3ccccc3F)CCCC2)c(=O)n1,-15
CS(=O)(=O)N1CCc2ccc(NC(=O)C3CC(c4ccccc4F)=NO3)cc21 (stereo unspecified),18
Cc1ccc(-c2nc(CN(c3ccccc3C)S(=O)(=O)c3cccs3)c(C)o2)cc1,15
COc1ccc(-c2cc3c(=O)oc4ccccc4c3[nH]2)cc1,?
CCC[C@@H]1C[C@@H](C(=O)N[C@H]([C@H]2O[C@H](SC)[C@H](O)[C@@H](O)[C@H]2O)[C@H](C)O)N(C)C1,-1
O=C(c1ccc(Cl)cc1)C1CCN(C(=O)NC23CC4CC(CC(C4)C2)C3)CC1,-4
OCCn1ncc2c1CN(c1ncc(Cl)cn1)C2,0
COc1cc2c(cc1OC)C(C(C(=O)N(CCc1ccc(OC)c(OC)c1OC)CCc1ccc(OC)c(OC)c1OC)c1ccccc1)=NCC2 (stereo unspecified),13
CN(C)CC1COc2ccccc2CN1C(=O)c1ccnn1C (stereo unspecified),122
Cc1ccc(Cc2cnc(NC(=O)C3COc4ccccc4O3)s2)cc1 (stereo unspecified),-50
COc1ccc(CCN2C(=O)N(C)C(=O)C23CCN(CCC(C)c2ccc(C)o2)CC3)cc1 (stereo unspecified),2
Cc1ccc(C)c(OCC(=O)N(C)Cc2cc(C(C)C)on2)c1C,10
Cn1ncc2c1C(COCC1CC1)N(C(=O)c1cscn1)CC2 (stereo unspecified),16

Nothing new here: an excerpt of the list.
smiles,Tg IFNy HTS
COCC(=O)N1CCC2(CC1)CN(S(C)(=O)=O)[C@H](CO)c1[nH]c3cc(OC)ccc3c12,141
Cc1ccc(CN2CCC3(CC2)Cc2ccccc2CNC3=O)o1,8
CC(=O)N[C@@H](Cc1ccccc1)C(=O)N1C[C@@H]2[C@H](C1)c1ccccc1[C@@H]2NC(C)=O,-45
CN(C)c1ccc(NC(=O)Cn2c(=O)cc(-c3nc(C4CC4)no3)c3ccccc32)cc1,30
CN(C)C(=O)C1OC2(CCN(Cc3ccco3)CC2)c2ccccc21 (stereo unspecified),3
COc1ccc(S(=O)(=O)CCNS(=O)(=O)N2CCCC(C)C2)cc1 (stereo unspecified),3

Next part.
smiles,Tg IFNy HTS
CN1C[C@H](NC(=O)c2cccc(Cn3cccn3)c2)C[C@H]1CO,-42
CCCN(C(=O)c1ccc(Br)cc1)C1(C(=O)NCc2ccccc2)CCN(C(C)=O)CC1,22
O=C(CCc1cc(=O)[nH]o1)N1C[C@@H]2[C@H](C1)[C@H]1CC[C@@H]2O1,-2
COCC(=O)N1C[C@H]2COC[C@@]2(COc2cccnc2)C1,-3
N#Cc1cccc(-c2ccc(C3[C@H]4CNC[C@@H]3N4C(=O)Nc3cccc(F)c3)cc2)c1 (stereo partly specified),-2&-9
COc1cc(Cl)c(Nc2nc(-c3nnc(-c4ccc(C)cc4)o3)nc3ccccc23)c(OC)c1,i
CN(Cc1ccccc1OCC1CCCO1)Cc1cccc2ncccc12 (stereo unspecified),-5
Cc1oc(-c2ccc(OC(C)C)cc2)nc1Cn1ccn2nc(-c3cccs3)cc2c1=O,-42
O=C(c1cnc(Nc2ccccc2)nc1)N1CCC2(CCCO2)CC1,-3
CS(=O)(=O)CS(=O)(=O)NCc1ccc(Cl)cc1,61
CC(C(=O)N1CCCC1)N1CC(c2cccnc2)C1 (stereo unspecified),67
COc1ccc(S(=O)(=O)N2CCCCC2)cc1NC(=O)c1ccc(F)cc1,-47
CCc1ncc(C(=O)N2CC[C@@H](c3ccc4ccccc4c3)[C@H](O)C2)cn1,15
CCN1CC[C@@]2(C(=O)N(C)C)CCN(C(=O)Cc3ccccc3)CC[C@H]12,17
COc1cccc(-c2nc(Cn3nnc(C(=O)Nc4cccc(C)c4C)c3C)c(C)o2)c1OC,31
CO[C@@H]1CC[C@@H]2CCN(C)C(=O)CC3(CCCCC3)CN(C)C(=O)c3cc(C#N)ccc3OC[C@H]1O2,25
CCCc1c(OCCCOc2ccc(OCC(=O)O)cc2)ccc(CC=O)c1O,-2
O=C(c1cn[nH]n1)N1CCC2(CC1)CCN(c1ccccc1)C2=O,-4
CCN1C(=O)CCc2cc(NC(=O)C3CC3)ccc21,-1
CCC1CN(Cc2cccc3nccnc23)Cc2cc(OC)ccc2O1 (stereo unspecified),28
CC(NC(=O)CCc1nc(-c2ccncc2)no1)C1CC2CCC1C2 (stereo unspecified),10
CCCC(=O)N1CCc2c([nH]c3ccccc23)C1c1ccc(C)cc1 (stereo unspecified),-49
CC(C)NC(=O)C(C)N1CCc2onc(-c3ccc(C(F)(F)F)cc3)c2C1 (stereo unspecified),1
COc1ccc(CN2CCC3(CC(C(=O)NCC(C)C)=NO3)C2)cc1 (stereo unspecified),4
CCC(CO)NC(=S)NC1CC2CCC1C2 (stereo unspecified),-7
O=C(NCCc1csc(C2CCN(C(=O)C3CCC3)CC2)n1)C1CCC1,41
CCN1CCN(C)C(=O)C12CCN(Cc1nccs1)CC2,3
CN(Cc1cncnc1)Cc1cnc2n1CCN(C(=O)N(C)C)CC2,4
CC(=O)N1CCC2(CC1)CC(CC(=O)Nc1cccnc1)c1ccccc1O2 (stereo unspecified),-5
O=C(NCCc1csc(-c2cccc(F)c2)n1)C(=O)Nc1ccc2c(c1)OCO2,-13
Cc1cnc(C(=O)N2CCCC2C(=O)c2cnn(-c3ccccc3)c2N)cn1 (stereo unspecified),17
Cc1ccc2[nH]c3c(c2c1)CN(C(=O)CN1CCSCC1)CC3,-7
CN1CCC(CN2CCC3(CC2)CCN(C(=O)CC2CCCC2)CC3)CC1,-2
O=C(C[C@@H]1CC[C@H]2[C@@H](COC[C@H](O)CN2S(=O)(=O)c2ccccc2)O1)NCC1CCCCC1,-15
C/C(=C(/CCOC(=O)C(C)C)SS/C(CCOC(=O)C(C)C)=C(\C)N(C=O)Cc1cnc(C)nc1N)N(C=O)Cc1cnc(C)nc1N,10
CCN(C[C@@H]1N[C@@H](CO)[C@H]1c1ccc(-c2ccc(F)cc2)cc1)C(=O)CN(C)C,-43
Clc1ccc(C(Cn2ccnc2)OCc2ccc(Sc3ccccc3)cc2)c(Cl)c1 (stereo unspecified),-78*
Cc1nc(C(=O)N2CCCC3(CCNC3=O)CC2)cs1 (stereo unspecified),58
O=C(NCc1csc(-c2cccs2)n1)c1ccccc1,-8
C[C@@H]1CCCCO[C@H](CN(C)C(=O)C2CCCCC2)[C@H](C)CN([C@@H](C)CO)C(=O)c2cc(NS(=O)(=O)c3ccccc3)ccc2O1,23
Cc1oc(-c2ccc(NC(=O)Cc3ccc(F)cc3)cc2)nc1Cn1cccn1,11
O=C(COc1cccc(-n2cnnn2)c1)N1CCOCC1,98
CCc1ccccc1OC1CN(C(=O)Cc2nn[nH]n2)C1,2
CC(C)Cc1cc(C(=O)N2CCc3c(c(C(=O)N(C)Cc4cscn4)nn3CC3CC3)C2)no1,-9
O=C1Nc2ccccc2C1C1CCNCC1 (stereo unspecified),51
O=S(=O)(c1cccs1)N1CCCCN2[C@H](CO)[C@@H](c3ccc(/C=C/c4ccccc4)cc3)[C@@H]2C1,-38
Cc1oc(-c2ccc(C(=O)NCc3cccs3)cc2)nc1CN1CCN(c2ccccc2)CC1,-57
Cc1ccc2cc(NC(=O)c3cccc4c3OC(C)(C)C4)ccc2n1,-5
Cc1sc2nc(CCN)nc(NCC(C)Oc3cccnc3)c2c1C (stereo unspecified),2
Clc1ccc(-n2ncc3c(NCCc4ccccc4)ncnc32)cc1,-7

Going on with the list:
smiles,Tg IFNy HTS
Cc1oc(C2CCN(S(=O)(=O)c3cc(F)ccc3F)CC2)nc1C(=O)N(C)C,59
COC(=O)CCC(=O)Nc1cccc2ccccc12,16
CCc1nc(SCC(=O)N2CCc3[nH]nc(C4CCC4)c3C2)n[nH]1,1
CCN1c2ccc(C)cc2C(=O)NC12CCN(C(=O)Cc1ccc(Cl)cc1)CC2,14
CN(C)C(=O)NC1C(NC(=O)N(C)C)N(C)C(=O)N1C (stereo unspecified),-1
O=C(C[C@H]1CC[C@H]2[C@@H](COC[C@H](O)CN2S(=O)(=O)c2cccc(Cl)c2)O1)N1CCOCC1,8
COc1ccc(CC(C)N2C[C@@H](N)[C@H](c3cn(C)c4cnccc34)C2)cc1OC (stereo partly specified),31
C/C=C/c1ccc(C2[C@H]3CNC[C@@H]2N3Cc2cccc(C(F)(F)F)c2)cc1 (stereo partly specified),-48
CN(C)CC(=O)N1CCCn2cnc(CNc3ncccn3)c2C1,14
Cn1nccc1C(=O)N1CCC(c2[nH]ncc2C(=O)N2CCCCCC2)CC1,24
COc1cccc(CC(=O)N2CCC(C(=O)NCCc3csc(-c4ccccc4)n3)CC2)c1,13
CN(C)C(=O)COCC1CN(Cc2ccoc2)Cc2nnn(C)c21 (stereo unspecified),9
CN(CCC(=O)Nc1ccccc1Cl)Cc1cc(C2CC2)n[nH]1,-9
O=C(NCc1cc(F)cc(F)c1)[C@@H]1[C@@H](CO)[C@@H]2Cn3c(cccc3=O)[C@H]1N2C(=O)c1cnccn1,7
Cc1nnsc1CN(C)C(=O)CCN1CCCCO1,-18
NC(=O)c1c(F)cccc1-c1cc(NCc2cccnc2)nc2[nH]ccc12,24
CNC(=O)CC(C)N(C)Cc1ccc2c(C)cc(=O)oc2c1 (stereo unspecified),2
O=C(COc1ccccc1)N1CCC2(CC1)Nc1cccnc1NC2=NCc1ccccc1,19
COCC(=O)N1CCCCC12CC(=O)N(c1cncnc1)C2 (stereo unspecified),6
COCCN1C[C@H]2[C@H](OC)CCN(Cc3ccc4ccccc4n3)[C@H]2C1,12
O=C(Cc1ccc(Cl)cc1)N1CC2(CCN(Cc3cccc(Cl)c3)CC2)C1,-26
CN(CCc1cnn(C)c1)Cc1nc(CC2CC2)no1,-5
COCCn1c2c(ccc1=O)CCN(C(=O)N1CCOCC1)CC2,-1
CC(C)N1CCC2(CCCN(C(=O)c3ccoc3)C2)CC1,91
Cn1ccc2cc(S(=O)(=O)N3CCCC(C(=O)N4CCN(c5ccccn5)CC4)C3)ccc21 (stereo unspecified),89

Part of the list above, with each value named:
> COc1cccc(CC(=O)N2CCC(C(=O)NCCc3csc(-c4ccccc4)n3)CC2)c1
  Tg IFNy HTS = 13
> CN(C)C(=O)COCC1CN(Cc2ccoc2)Cc2nnn(C)c21 (stereo unspecified)
  Tg IFNy HTS = 9
> CN(CCC(=O)Nc1ccccc1Cl)Cc1cc(C2CC2)n[nH]1
  Tg IFNy HTS = -9
> O=C(NCc1cc(F)cc(F)c1)[C@@H]1[C@@H](CO)[C@@H]2Cn3c(cccc3=O)[C@H]1N2C(=O)c1cnccn1
  Tg IFNy HTS = 7

Carrying on:
smiles,Tg IFNy HTS
Cc1ccc(C2(O)CCN(C(=O)COc3ccc4c(c3)OCO4)CC2)nc1,7
CCCCNC(=O)Cn1c(=O)cc(-c2nc(C3CC3)no2)c2ccccc21,-22
O=C(CCn1cncn1)N1CC[C@@H](c2ccc3c(c2)OCO3)[C@H](O)C1,-1
CCc1cc(-c2[nH]ncc2-c2ccc3c(c2)OCO3)c(O)cc1O,11
COc1ccc(C(=O)N(c2ccc(Cl)cc2)C2(C(=O)NCc3ccccc3)CCN(C(C)=O)CC2)cc1,69
COc1ccc(-c2nc(Cc3noc(-c4ccccc4OC)n3)c(C)o2)cc1,-2
CCn1nc(C)c(CCC(=O)N2CCC(C3Nc4ccccc4S(=O)(=O)N3)CC2)c1C (stereo unspecified),-34
Cc1onc(-c2ccccc2)c1-c1nc(CSc2ccc(C(F)(F)F)cn2)no1,-1
COc1cc2c(cc1OC)C(C)=NCC2,29
O=C(Nc1cccnc1)[C@@H]1C[C@H]2CCN(c3ncc(F)cn3)C[C@@H]2O1,11
O=C(NCc1cnn2ccccc12)c1ccccc1C1CCNC1 (stereo unspecified),2
Cc1cnc(CNC(=O)CC(=O)Nc2cc(Cl)ccc2C)cn1,2
COc1ccc(-c2nc(C)c(CCNS(=O)(=O)c3c(C)cc(C)cc3C)s2)cc1,64
